Screening data: PubChem, several laboratories
Vif A3G – inhibitors of Vif binding to APOBEC3G peptide, primary screen, biochemical, TR-FRET, GST-Vif 1-94, biotin-A3G peptide, dose response retest (AID 1117319); 0.57% of 260,000 active; Virion infectivity factor (Human immunodeficiency virus type 1 group M subtype B (isolate …; TR-FRET GST-Vif / biotin-A3G peptide binding; higher % means a stronger effect; test concentration not given here; strong numbers were not always called active; inhibition, %, or IC50 in µM where a hit was titrated;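 active means above the screen mean plus three standard deviations and confirmed in dose response; inconclusive means results disagree or hit not tested in dose response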;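 further: Vif residues 1-94 fused to GST binding biotinylated APOBEC3G peptide 110-148; 0% = full assay without inhibitor and 100% = GST in place of GST-Vif; retest series ran down from 100 µM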
LANA-H2B inh – blockers of LANA interaction with H2A/H2B – biochemical, FP readout, HTS, primary screen | cell-free LANA-H2A/H2B peptide, fluorescence polarization | inhibition, % (test concentration not listed) | 0.6% of 320,000 active | AID 2629, 2010; in the data active means inhibition mostly above about 10%, no sharp cut-off; inactive means mostly below about 6.7%;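 further: stock transfer was 7.5 nL into about 10 µL; 0% = median of vehicle wells and 100% = median of positive control wells; one replicate is shown; the record names a cut of 25% in any replicate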
Calb FLC – C. albicans growth inhibition with fluconazole, primary screen, CaCi-2 strain, Alamar Blue fluorescence | C. albicans CaCi-2 (fluconazole-resistant clinical isolate) + fluconazole, 48 h | growth inhibition, % (concentration not given with the values) | 0.57% of 300,000 active;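 active means most replicates above 75%; inconclusive means exactly half above 75%; inactive means most below 75%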;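 further: all wells also contain fluconazole at 8 µg/ml as a sub-toxic cotreatment; 0% = median of DMSO wells and 100% = median of geldanamycin control wells; wells of about 8 µL received 7.5 nL stock; the first replicate is given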
T cruzi inh – inhibitors of intracellular T. cruzi growth, primary screen, luminescence, NIH3T3 host cells | T. cruzi beta-gal in NIH3T3, 90 h | inhibition, % (no concentration beside the values) | 1.4% of 300,000 active;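 active means mean inhibition across valid replicates above about 55%, limit read from the data; inconclusive means mean below that limit but half or more replicates reach it; inactive means mean below it, under half of replicates reach it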;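 further: signal also drops with host cell toxicity which is not excluded here; 0% = plate median of DMSO wells and 100% = zero luminescence signal; higher percent means less beta-gal luminescence so fewer parasites; stock transfer was 50 nL into about 50 µL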
AF4-AF9 inh – inhibitors of AF4 peptide binding to AF9, primary screen, biochemical, AlphaScreen, biotin-AF4 peptide, FLAG-AF9, single point; inhibition, % at 10 µM; Protein AF-9 (Homo sapiens), P42568; 0.47% of 350,000 active;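 active means every replicate reaching a set inhibition limit, whatever the replicate mean, cut at about 25% in these data; inconclusive means mean inhibition reaches that limit but some replicates miss it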;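 further: 0% = plate neutral control median and 100% = total signal loss; the record names both 10 and 1 µM as test concentration; the first replicate is given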
Target sequence (P42568 whole entry, looked up): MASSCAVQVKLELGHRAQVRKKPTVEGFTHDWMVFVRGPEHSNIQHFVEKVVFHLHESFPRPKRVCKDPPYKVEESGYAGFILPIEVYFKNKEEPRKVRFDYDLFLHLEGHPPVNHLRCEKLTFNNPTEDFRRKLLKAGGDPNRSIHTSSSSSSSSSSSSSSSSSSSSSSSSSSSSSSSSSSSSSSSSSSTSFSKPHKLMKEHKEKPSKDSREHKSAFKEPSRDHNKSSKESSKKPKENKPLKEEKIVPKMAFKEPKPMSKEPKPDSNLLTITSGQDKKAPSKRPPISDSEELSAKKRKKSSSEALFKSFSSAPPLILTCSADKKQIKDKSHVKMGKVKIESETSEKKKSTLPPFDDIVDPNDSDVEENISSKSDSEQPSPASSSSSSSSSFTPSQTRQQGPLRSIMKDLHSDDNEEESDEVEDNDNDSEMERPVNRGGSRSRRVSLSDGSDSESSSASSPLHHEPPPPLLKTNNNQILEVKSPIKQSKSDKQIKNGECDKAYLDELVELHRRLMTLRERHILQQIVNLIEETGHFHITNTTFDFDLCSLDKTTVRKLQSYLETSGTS
RanGTP-Impb inh – inhibitors of RanGTP-importin-beta interaction, primary screen, biochemical, FRET, CFP-Ran, YFP-importin-beta, homogeneous; Ran GTPase (GTP-bound) - importin-beta complex; cell-free CFP-Ran/YFP-importin-beta FRET ratio; inhibition, % (test concentration not listed); 1.1% of 300,000 active;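 active means most replicates above 15%; inconclusive means exactly half above 15%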;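 further: 0% = DMSO wells and 100% = Ran loaded with GDP instead of GTP; wells of about 40 µL received 100 nL stock; the first replicate is given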
Beta cell apopt – inhibitors of cytokine-induced beta cell apoptosis, primary screen, luminescence; INS-1E cytokine-induced death, ATP luminescence, 48 h; percent of positive-control rescue, neutral wells zero; protection from apoptosis, % (concentration not given with the values); 0.8% of 300,000 active; AID 435005, 2010;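 active means all replicates at 75% or more, or half of them and the mean; inconclusive means half reach 75% but not the mean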;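 further: 0% = cytokine-treated negative control wells and 100% = positive control rescue; higher means more ATP so stronger rescue from cytokine killing; wells of about 40 µL received 100 nL stock; the first replicate is given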
A1 inh – caspase 3/7 activation in MEF A1-2A-BIM cells, primary screen, A1 inhibitor project, cell-based, luminescence, HTS; Caspase-Glo 3/7 luminescence, 3 h; percent of clofoctol response, vehicle zero; caspase activation, % (test concentration not listed); 0.066% of 330,000 active; AID 2462, 2010;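 active means over half of replicate activation scores above 10%, or exactly half above 10 with the replicate mean above 10; inconclusive means replicate mean below 10 yet half the replicates above 10; inactive means over half of replicates below 10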;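 further: wells of about 30 µL received 50 nL stock; many hits fall short of the cut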
An asterisk follows results filed as active; ? = inconclusive; · = not tested or not shown. Outcome played no part in choosing rows. About 4.3% of those tested had a hit in this group.

SMILES | Vif A3G | LANA-H2B inh | Calb FLC | T cruzi inh | AF4-AF9 inh | RanGTP-Impb inh | Beta cell apopt | A1 inh
OC(COc1ccc(F)cc1)CN1CCN(c2ccccc2F)CC1 (stereo not drawn) | -3% | -2.1 | 7 | 1 | 2.5 | -1.8 | -9 | ?
Cc1cccc(OCCCC(=O)Nc2ccc(S(=O)(=O)N3CCCC3)cc2)c1 | 4% | -184 | 5 | 12 | · | 4.4 | -5 | -0.2
N#Cc1ccc(OCCN2CCc3ccccc3C2)cc1 | · | 0.3 | 20 | 2 | 2.0 | 7.2 | 1 | -0.2
CN(C(=O)COC(=O)c1ccc(C(C)(C)C)cc1)C1CCS(=O)(=O)C1 (stereo not drawn) | 0% | -3.6 | 2 | 1 | 0.1 | -1.2 | -6 | -0.1
Clc1ccc(Nc2ccccc2)nn1 | · | -1.9 | 0 | 2 | -8.4 | ? | 0 | -0.4
Nc1cc(Cl)ccc1C(=O)OCC(=O)NC1CCCCCCC1 | 12% | 2.4 | · | · | -7.6 | · | 3 | 0.2
O=C(Nc1ccc2cccnc2c1)c1ccc(Br)cc1 | · | -1.4 | -13 | -10 | 0.2 | 2.6 | -3 | 0.2
CCOC(=O)CNC(=O)CSc1cc(C)nc2ccc(OC)cc12 | -2% | 2.3 | -5 | -17 | -0.5 | 0.7 | · | -0.4
CC1CCCN(CCCNC(=O)c2cc3c(Cl)nc4ccccc4c3s2)C1 (stereo not drawn) | 27% | -8.1 | -24 | 77* | 7.8 | 1.8 | 65 | 0.4
COc1ccc(S(=O)(=O)N2CCSC2c2ccc(OC)c(OC)c2)cc1 (stereo not drawn) | 3% | 1.1 | -5 | 1 | · | -1.0 | 0 | -0.2
CC(=O)NCCc1ccc(S(=O)(=O)N2CCOCC2)cc1 | 0% | -1.0 | 1 | · | · | · | -3 | 0.6
COc1cc(/C=C2\SC(=Nc3ccc(F)cc3)N(c3ccc(F)cc3)C2=O)ccc1OCC(=O)O | 31% | 4.8 | 26 | -11 | · | 3.8 | 1 | 0.5
CCCc1cc(C(=O)Nc2cccnc2)no1 | -3% | -2.7 | 3 | -20 | -3.2 | 5.0 | -1 | -4.8
OC(COc1ccccc1)CN1CCN(Cc2ccc3c(c2)OCO3)CC1 (stereo not drawn) | 2% | 2.5 | -9 | 9 | 0.1 | 2.2 | · | -0.1
COc1ccc(N2CCN(C(=O)CCCNC(=O)Cn3cnc4sc(C)c(C)c4c3=O)CC2)cc1 | · | 1.9 | 6 | -3 | -3.8 | 3.5 | 0 | 1.3
C=CCN(C(=O)c1csnn1)C(C(=O)NC1CCCCC1)c1ccc(C)cc1 (stereo not drawn) | · | 15 | 1 | 0 | -0.3 | 0.4 | 0 | 0.1
C#CCOCCOCCOCCNc1nc(N2CCN(C(=O)Cn3cc(CCCCN)nn3)CC2)nc(N2CCN(C(=O)Cn3cc(CCCN=C(N)N)nn3)CC2)n1 | · | -2.7 | · | · | 11 | · | -2 | 0.6
CN1CCS/C1=C/C=C1/SC(=S)N(Cc2ccccc2)C1=O | · | -3.8 | 8 | 4 | 9.0 | -2.4 | -2 | 1.5
Cc1c(N=C2N=C(NC(=O)c3cccs3)c3ccccc32)c(=O)n(-c2ccccc2)n1C | -2% | 12 | 1 | 27 | 12 | 0.4 | 20 | -1.1
O=C1N=C(N2C=CC(=C3C=CNC=C3)C=C2)/C(=C/N=NC(=O)c2ccccc2O)S1 | · | 14 | 27 | 6 | 1.2 | -7.4 | 1 | 0.1
CC1(C)CNC(=O)c2sc(N3CCCCC3)nc2C1 | ? | 1.2 | -3 | -7 | · | 3.4 | -4 | -2.3
Cc1cc(Cl)ccc1NC(=O)Nc1c(C)n(-c2ccccc2)c(=O)n1C | -11% | · | 7 | -18 | · | 0.0 | · | ·
COc1ccc(OC)c(C2/C(=C(\O)c3ccc(OC)c(Cl)c3)C(=O)C(=O)N2CCN(C)C)c1 (stereo not drawn) | -3% | 7.9 | -8 | -4 | · | -2.6 | -12 | 0.1
O=C(N/N=C/c1nn(-c2ccccc2)cc1-c1ccccc1)c1ccncc1 | 0% | · | -2 | 3 | · | -1.2 | 0 | -0.9
COc1ccc(Cl)cc1N(CC(=O)N/N=C/c1ccc(OC(C)C)cc1)S(=O)(=O)c1ccc(C)c([N+](=O)[O-])c1 | · | -1.7 | -14 | 37 | -10 | -1.4 | -9 | 0.7
COc1cc(CNCCO)cc(Br)c1OCc1cccs1 | -2% | -3.7 | -5 | 24 | · | 0.4 | 1 | 0.4
C[C@H](CO)N1C[C@H](C)[C@@H](CN(C)CC2CCCCC2)Oc2c(NS(=O)(=O)c3ccc(F)cc3)cccc2C1=O | · | 2.7 | · | · | 3.8 | · | -5 | 0.3
O=C(COc1ccc(-c2nnco2)cc1)N1CCN(S(=O)(=O)c2ccccc2)CC1 | 14% | -1.0 | -18 | -9 | · | -2.3 | 0 | 1.3
CCCCn1c(N)c(N(CC(C)C)C(=O)C2CCN(S(=O)(=O)c3ccc(C)c(C)c3)CC2)c(=O)[nH]c1=O | -7% | 1.2 | 2 | 2 | 0.7 | 5.2 | · | 0.2
O=C(CN1CCN(S(=O)(=O)c2ccccc2)CC1)Nc1ccc(Cl)c([N+](=O)[O-])c1 | -1% | -2.7 | 3 | 27 | -7.9 | · | -3 | 0.6
N/C(=N\S(=O)(=O)c1cc(C(F)(F)F)cc(C(F)(F)F)c1)c1cccs1 | · | -1.4 | -11 | 0 | -1.1 | -1.5 | -8 | 0.3
CCCCOCCCNC(=O)Cc1cccs1 | 3% | -0.7 | -5 | -12 | · | 0.8 | 5 | -0.4
CC(C)(C)C(=O)Nc1c2c(nn1-c1cccc(Cl)c1)CS(=O)(=O)C2 | -4% | 1.7 | 4 | -10 | -4.5 | 2.8 | -2 | 1.6
COc1ccc(NC(=O)COC(=O)c2cccc(S(=O)(=O)N3CCCCC3)c2)c(OC)c1 | -2% | 0.8 | · | · | 0.4 | · | 2 | 0.6
O=S(=O)(NCC(Nc1ccc(Cl)cc1)c1ccccc1)c1ccccc1 (stereo not drawn) | 31% | 7.5 | 3 | 8 | · | -0.5 | 7 | 0.0
Cc1[nH]c2ccccc2c1/C=N/NC(=O)c1cccc(S(=O)(=O)Nc2ccccc2Cl)c1 | 13% | -2.5 | 11 | 11 | · | 3.3 | 2 | -0.7
COc1ccc(-c2nnc(SCC(=O)N(C)C3CCS(=O)(=O)C3)n2N)cc1OC (stereo not drawn) | 3% | 1.1 | 4 | -7 | 2.2 | 1.5 | -5 | -0.5
O=C1C(=O)N(CCCn2ccnc2)C(c2ccc([N+](=O)[O-])cc2)/C1=C(\O)c1ccc2c(c1)OCCO2 (stereo not drawn) | 0% | · | · | · | -11 | · | 4 | -1.0
O=C(N/N=C\c1cccnc1)c1cc(-c2ccc(Cl)s2)[nH]n1 | -2% | -4.3 | 2 | -10 | 0.2 | 0.2 | 8 | 1.4
COc1ccc(N2CCN(C(=O)Cn3cnc4sc(C)c(S(=O)(=O)N5CCOCC5)c4c3=O)CC2)cc1 | -9% | -4.3 | -4 | -6 | 4.1 | ? | -3 | 0.1
Cc1cccc(C(=O)O/N=C/c2c(Cl)n(C)c3ccccc23)c1 | 1% | -0.4 | 3 | 3 | · | -1.6 | -5 | 1.1
CN1C(=O)C(=O)N(c2cccc(C(F)(F)F)c2)C1=O | · | 7.6 | 3 | -3 | -13 | 0.9 | · | 0.7
CCNS(=O)(=O)c1ccc(Br)c(OC)c1 | 9% | -2.6 | 11 | -16 | -1.1 | -2.7 | -7 | -1.0
Cc1cc(NC(=O)c2ccc3[nH]c(C)c(C)c3c2)ccn1 | -3% | 1.6 | 5 | -18 | -5.6 | -0.3 | 11 | -0.4
O=C1N/C(=N\N=C\c2cccnc2)SC1Cc1ccc(SC(F)F)cc1 (stereo not drawn) | 3% | -2.2 | 70 | 62* | · | 2.3 | 88* | 0.0
CCOc1ccccc1C(=O)NCC(=O)OCc1c(C)noc1C | -1% | 2.0 | 4 | -12 | -20 | -2.9 | -17 | -0.4
Cc1cc(C)nc(NS(=O)(=O)c2ccc(NC(=O)c3ccc(S(=O)(=O)N4CC(C)OC(C)C4)cc3)cc2)n1 (stereo not drawn) | 9% | 9.8 | 0 | 2 | · | 6.5 | -13 | -0.4
CC(=O)N/N=C/c1cc([N+](=O)[O-])ccc1OCCOc1ccccc1 | 9% | 0.6 | -2 | -5 | · | 0.6 | · | 0.9

Profiles as entered above.
Cc1cc(Cl)ccc1NC(=O)Nc1c(C)n(-c2ccccc2)c(=O)n1C is entered as Vif A3G = -11%; LANA-H2B inh = ·; Calb FLC = 7; T cruzi inh = -18; AF4-AF9 inh = ·; RanGTP-Impb inh = 0.0; Beta cell apopt = ·; A1 inh = ·
C=CCN(C(=O)c1csnn1)C(C(=O)NC1CCCCC1)c1ccc(C)cc1 (stereo not drawn) is entered as Vif A3G = ·; LANA-H2B inh = 15; Calb FLC = 1; T cruzi inh = 0; AF4-AF9 inh = -0.3; RanGTP-Impb inh = 0.4; Beta cell apopt = 0; A1 inh = 0.1

New compounds follow:
SMILES | Vif A3G | LANA-H2B inh | Calb FLC | T cruzi inh | AF4-AF9 inh | RanGTP-Impb inh | Beta cell apopt | A1 inh
Cc1cccc(C)c1OCC(=O)NNC(=S)NC(=O)C1CC1 | -8% | 1.9 | 76* | 19 | 0.4 | 0.7 | 32 | 0.3
CCOC(=O)c1cc2c(ccn2C)n1CC(=O)N(Cc1ccccc1)c1ccccc1 | · | -5.0 | -1 | 30 | · | -3.5 | -2 | -0.3
CCCNc1nc(C)cc(-c2cc(C(=O)NCc3ccccc3)on2)n1 | · | 6.1 | -10 | -15 | -5.0 | 4.1 | -4 | 0.5
CC1(C)CC(=O)C2=C(C1)N(c1ccccc1C#N)C(N)=C(C#N)C2c1cccs1 (stereo not drawn) | ? | -0.9 | -6 | 4 | · | 2.3 | -2 | 0.8
CCOC(=O)N1CCC(N2CCN(c3cc(C)ccc3C)CC2)CC1 | 2% | -6.2 | 13 | 5 | 6.4 | -2.1 | -7 | -0.6
Cn1c(=O)c2cc(S(=O)(=O)N3CCOCC3)ccc2n(C)c1=O | 3% | -2.2 | -3 | -6 | · | ? | 0 | 0.0
COc1ccc(NS(=O)(=O)CC(C)C)c(OC)c1 | 2% | -3.7 | 13 | 0 | -3.8 | -0.9 | 0 | 0.6
Cc1cc(Cl)ccc1NC(=S)N1CCN(Cc2ccccc2)CC1 | · | 1.5 | -65 | -9 | · | 2.9 | -6 | 0.0
